# PrP UTR inh: inhibition of PrP 5' UTR reporter expression | 340,000 compounds, 0.35% hits | inhibition, % (concentration not given with the values) | cell-based PrP 5' UTR mRNA reporter, plate reader;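 active means every replicate at 50% or more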;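 further: 0 = median of the neutral control wells; tested in H4 reporter cells; numbers are from one replicate; inactives centre near -14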
# Autofluor counter: flagged as autofluorescent in microsphere protease counterscreen | compound autofluorescence counterscreen, microsphere flow cytometry; hits give high values | fluorescence intensity (test concentration not listed) | 360,000 compounds, 3.1% hits;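 active means at least 3 SD above the mean of all compounds, about 16000 in these data; inconclusive means too few beads counted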;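 further: 100 nL of 1 mM stock went into each well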
# BJeLR lethal: kills HRASV12-expressing BJeLR cells | 300,000 compounds, 0.17% hits | AID 1554 | BJeLR (HRASV12) viability, CellTiter-Glo ATP luminescence, 48 h; reference of the scale not given here | inhibition, % (concentration not given with the values);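 active means replicate mean above 50%; inconclusive means above 50% but judged a plate artefact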;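 further: 50 nL library stock added to about 25 µL; numbers are from one replicate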
# Mtb hypoxia rep: reduces hypoxia-regulated biosensor signal in M. tuberculosis; M. tuberculosis hypoxia-regulated fluorescent reporter, fluorescence; fluorescence inhibition, % (concentration not given with the values); 300,000 compounds, 0.1% hits;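 active means 35 to 45% if threefold the growth effect, above 45% if 1.5-fold the growth effect; inactive means the rest, general growth blockers included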;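 further: wells of about 50 µL received 100 nL stock; 0% = vehicle wells and 100% = reference inhibitor wells; whole bacteria with a GFP reporter of the hypoxia response; strong numbers were not always called active; many hits fall short of the cut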
# Sa RN4220 lethal: kills Staphylococcus aureus RN4220 | inhibition, % (test concentration not listed) | AID 1259311 | 330,000 compounds, 0.33% hits | S. aureus RN4220 growth, OD600, 16 h;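 active means z-score of -3 or lower and OD600 up to 0.18 on both plates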;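 further: plate controls were untreated cells for no effect and reference antibiotic for full effect; stock transfer was 100 nL into about 80 µL; one replicate is shown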
# Sa ugtP lethal: growth inhibition of S. aureus ugtP deletion strain; S. aureus RN4220 ugtP deletion, OD600 growth, 16 h; some inactives read as strong as hits; growth inhibition, % (concentration not given with the values); 330,000 compounds, 0.54% hits;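 active means z-score under -3 and OD600 up to 0.15 on both plates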;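 further: plate controls were untreated wells for no effect and antibiotic for full effect; wells of about 80 µL received 100 nL stock; the first replicate is given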
# Mtb hypoxia rep growth: further read-out of Mtb hypoxia rep, marked with its call; growth inhibition, %; measured here: M. tuberculosis growth (absorbance);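 0% = vehicle and 100% = reference antibiotic; read after six days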
# Active calls of the source: *; ? = inconclusive; nt = not tested or not shown; & = joins results of further samples.
SMILES,PrP UTR inh,Autofluor counter,BJeLR lethal,Mtb hypoxia rep,Mtb hypoxia rep growth,Sa RN4220 lethal,Sa ugtP lethal
O=C(CSc1ccc(-c2cccnc2)nn1)N1CCCCC1,-18,4613,-15,11,-7,3.0,10
NC(CO)(CO)COCc1ccccc1,-61,3901,-3,5,0,7.1,7
CCCC1(CCC)NC(=O)N(CC(=O)Nc2ccc3c(c2)OCCO3)C1=O,-14,4296,nt,17,7,1.7,-1
CCOC(=O)C1=C(C)N=c2s/c(=C\c3ccc(OCC(=O)O)cc3)c(=O)n2C1c1ccc(Cl)cc1 (stereo unspecified),-1,4176,1,nt,nt,nt,nt
CCC(C)C(NC(=O)OCc1ccccc1)C(=O)NCC(c1ccccc1)N(C)C (stereo unspecified),-9,5708,-14,0,12,-2.1,15
O=C(CCCNS(=O)(=O)c1cccc2nsnc12)NCCN1CCN(c2ccccc2F)CC1,-4,3427,nt,8,3,6.4,6
Cn1c(SCC(=O)NCc2cccs2)nnc1-c1ccc(S(=O)(=O)N2CCCC2)cc1,nt,10906,-4,2,-1,1.2,3
C=CCNC(=O)c1cc2c(=O)n3ccccc3nc2s1,-44,3133,2,-1,1,2.9,13
CCN(CC)CCNC(=O)CCCNC(=O)Cn1cnc2sc(C)c(C)c2c1=O,-26,4889,-1,nt,nt,0.3,-2
CCOC(=O)C1CCN(C(=S)Nc2cc(C)ccc2C)CC1,-20,2524,-6,1,4,3.6,8
CCC(C)NC(=O)c1ccc(NS(=O)(=O)c2ccc3[nH]c(=O)[nH]c3c2)cc1 (stereo unspecified),-17,5834,-6,3,12,-1.5,-2
CC1CC(C)CN(C(=O)COC(=O)c2cc3ccccc3oc2=O)C1 (stereo unspecified),-44,2928,nt,10,4,1.5,6
C=CCOc1ccccc1CN1CCC(C(=O)Nc2cccc(-c3ccn[nH]3)c2)CC1,-26,5686,4,0,4,1.8,0
O=C(NN=Cc1ccc2c(c1)OCO2)c1ccc2c(c1)OCCO2,nt,nt,nt,9,4,0.4,8
O=[N+]([O-])c1cccc(CSc2ncnc3ccccc23)c1,-4,4310,0,16,6,4.9,-5
COC(=O)c1ccc(-c2nc3ccccc3[nH]2)cc1,-37,2626,15,3,0,-0.6,-15
COC(=O)c1n[nH]n(-c2cc(Cl)cc(Cl)c2)c1=O,-31,6213,-12,13,8,1.9,2
COCCn1c(-c2ccc(-c3ccc([N+](=O)[O-])cc3Br)o2)nc2c1c(=O)[nH]c(=O)n2CC(C)C,-2,4801,-9,7,2,-26,-5
COc1cccc(C=NNC(=O)c2oc3nc(-c4ccccc4)cc(-c4ccco4)c3c2N)c1,nt,nt,nt,0,1,7.5,-22
O=C(NC(=S)NCc1ccccc1)c1ccccc1,-65,2982,3,13,7,0.0,-5
O=C(COC(=O)c1cccnc1)Nc1cccc(Cl)c1,2,3474,0,1,-1,-1.6,1
Cc1ccc(C2=CSC3=NCCN23)cc1,-13,5314,-9,1,2,2.3,4
COc1ccc(S(=O)(=O)N2CCN(c3c(C)cccc3C)CC2)cc1OC,-18,5566,-4,nt,nt,-4.3,9
CCOC(=O)c1ccc(N=C2NC(=O)CS2)cc1,-8,23536*,10,4,16,6.9,-9
CC1=C(C(=O)N2CCN(C(=O)c3ccco3)CC2)C2(CCC(C)CC2)OC1=O (stereo unspecified),-35,6094,-5,nt,nt,0.8,3
COc1ccccc1-c1coc2cc(OC(=O)N3CCOCC3)ccc2c1=O,nt,3337,2,-3,3,3.1,10
CC1CCN(c2nc(-c3ccccc3)cc(C(F)(F)F)n2)CC1,-22,8697,5,13,15,-0.2,88*
O=C(CCC(=O)c1ccccc1)NCc1cccc(C(F)(F)F)c1,-96,3065,nt,8,4,3.5,-2
COCCNC(=O)COC(=O)c1cc(-c2ccc(OC)cc2)nc2ccccc12,-28,4729,-7,3,4,7.4,5
Cc1cc(NC(=O)c2ccccc2F)cc(C)c1OCC(=O)N1CCOCC1,-17,8554,-7,-5,-12,-0.7,5
COc1ccc(CCNC(=O)C23CCC(C)(C(=O)C2Br)C3(C)C)cc1OC (stereo unspecified),-33,nt,0,1,-4,2.2,4
COc1ccc2c(C)cc(SCC(=O)N3CCOCC3)nc2c1,-18,6037,-6,5,6,8.1,2
COc1cc2c(cc1OC)-c1cc(Nc3ccc(C(=O)O)cc3)nc(=O)n1CC2,2,3285,1,-3,4,-3.6,-1
CCC(C)C1CN=C(N)N1CCCc1cc(OC)c(OC)c(OC)c1 (stereo unspecified),nt,nt,nt,-2,10,4.4,3
NNC(=O)c1cc(-c2cccs2)nc2ccccc12,-11,4523,5,4,10,1.4,-13
Cc1cc(C)cc(OCCNC(=O)c2cc(S(=O)(=O)N3CCOCC3)ccc2F)c1,1,4892,-6,1,-1,1.9,2
Cc1ccccc1NC(=O)Cn1nnc(C(=O)NCc2ccco2)c1N,2,2230,-1,-18,-12,0.6,0
O=C(NCCCN1CCCCC1)c1ccc(CS(=O)c2ccc(F)cc2)o1 (stereo unspecified),-7,5955,6,2,14,1.5,6
CCOC(=O)c1nsnc1NCCSC(=N)N,-13,2210,6,7,3,1.0,6
Cn1ncc(Br)c1N1C(=O)CCC1=O,-13,4470,-4,7,4,2.5,6

# Arranged by number of heavy atoms (low to high): part of the list above
SMILES,PrP UTR inh,Autofluor counter,BJeLR lethal,Mtb hypoxia rep,Mtb hypoxia rep growth,Sa RN4220 lethal,Sa ugtP lethal
O=C(CCC(=O)c1ccccc1)NCc1cccc(C(F)(F)F)c1,-96,3065,nt,8,4,3.5,-2
CCC(C)C1CN=C(N)N1CCCc1cc(OC)c(OC)c(OC)c1 (stereo unspecified),nt,nt,nt,-2,10,4.4,3
COc1ccccc1-c1coc2cc(OC(=O)N3CCOCC3)ccc2c1=O,nt,3337,2,-3,3,3.1,10

# Additional compounds
SMILES,PrP UTR inh,Autofluor counter,BJeLR lethal,Mtb hypoxia rep,Mtb hypoxia rep growth,Sa RN4220 lethal,Sa ugtP lethal
CC(=NNC(N)=S)c1ccc(Br)s1,nt,nt,nt,nt,nt,9.6,-2
CCOC(=O)C1(CCCc2ccccc2)CCN(C(=O)CN2CCOC2=O)CC1,-13,2540,-13,12,3,7.4,-3
CCCCN1CCc2c([nH]c3c(C)cccc23)C1=O,-90,3878,0,11,8,3.3,-1
CC(=O)Oc1ccc(C2=Cc3ccc(OC(C)=O)cc3OC2C)cc1 (stereo unspecified),1,3602,nt,9,8,3.4,-2
CCOC(=O)c1oc2ccccc2c1COC(=O)C(C)NC(=O)c1ccco1 (stereo unspecified),-5,3805,nt,6,8,1.6,1
O=C(NC(=S)NCc1cccnc1)c1ccccc1,-10,9749,8,2,6,3.7,1
Cc1c(-c2n[nH]c(=S)n2-c2ccc(C(F)(F)F)cc2)nnn1-c1ccccc1,-17,2555,10,nt,nt,nt,nt
O=C(CCO)c1ccc(O)cc1,-6,4148,11,nt,nt,0.6,7
COc1ccc(OC)c(/C=C/C(=O)OCC(=O)NCc2cccs2)c1,-20,8354,nt,12,7,-0.6,7
COc1ccc2[nH]c3c(c2c1)CCN1C(=O)C(CC(=O)NCc2cccc(C(F)(F)F)c2)C[C@H](C(=O)N(C(C)C)C(C)C)[C@@]31C (stereo partly specified),-6,3028,nt,-7,8,-1.4,-24
S=c1[nH]nc(-c2ccccc2)n1/N=C/c1cccc(Cl)c1,-9,3587,-7,nt,nt,nt,nt
CCOc1ccc(N2C(N)=NC(N)=NC2(C)C)cc1,-24,4753,3,nt,nt,-1.6,-2
CC(C)OC12Oc3ccccc3C=C1N1CCC2CC1 (stereo unspecified),6,3517,1,13,4,-12,-5
O=C(O)CSc1c2c(nc3cc(C(=O)Nc4cccc(C(F)(F)F)c4)ccc13)CCCC2,-29,5106,7,2,-1,11,-1
Clc1ccccc1-c1cc(COc2ccc3ccccc3c2)no1,-20,2351,4,12,6,12,63
COCCNC(=O)CCSCc1ccccc1F,-21,9622,-8,1,0,4.8,7
Cc1cc(C(=O)O)ccc1NCc1ccncc1,-17,4189,-7,5,6,-1.5,5
Cn1cccc1Cc1nnc(SCC(=O)NCc2ccco2)n1-c1ccc(F)cc1,-19,22151*,-10,2,1,4.3,-4
Cc1c(C=C2C(=O)c3ccccc3C2=O)cc(C#N)n1C,nt,nt,4,12,-2,2.0,3
COc1ccc(OCCn2cnc3ccccc32)cc1,-25,3738,0,12,9,4.2,6

# Brought forward from above: two compounds, then new ones.
SMILES,PrP UTR inh,Autofluor counter,BJeLR lethal,Mtb hypoxia rep,Mtb hypoxia rep growth,Sa RN4220 lethal,Sa ugtP lethal
Cc1c(C=C2C(=O)c3ccccc3C2=O)cc(C#N)n1C,nt,nt,4,12,-2,2.0,3
COc1ccc(OCCn2cnc3ccccc32)cc1,-25,3738,0,12,9,4.2,6
Cc1cc(C(=O)C(C(c2ccccc2)N2CCOCC2)N2CCOCC2)ccc1Cl (stereo unspecified),-20,2882,nt,1,-2,-1.3,-8
COc1ccccc1C(=O)CSc1ccccn1,-60,4330,-3,1,-8,2.0,2
CC(C)NC(=O)c1ccc(-c2ccc(Cl)c(C(F)(F)F)c2)o1,-16,9790,5,0,2,1.1,-4
COc1ccc(-c2cc(=Nc3c(C)n(C)n(-c4ccccc4)c3=O)c3ccccc3o2)cc1,-32,4476,-2,8,12,11,8
Cc1cc(Br)ccc1SCC(=O)OCC(=O)Nc1ncc(C(F)(F)F)cc1Cl,-27,2491,-2,12,11,3.8,4
CCc1ccccc1NC(=O)c1ccc(-n2c(C)ccc2C)cc1,-31,nt,1,nt,nt,-1.1,-5
Cc1sc(NC(=O)c2ccco2)c(C(c2cccnc2)N2CCN(c3ccc(F)cc3)CC2)c1C (stereo unspecified),-18,6278,14,0,-2,-12,-3
Cc1ccc(CSCC(=O)Nc2cc(S(=O)(=O)N3CCOCC3)ccc2OC(C)C)cc1,-18,?,3,11,3,4.0,-3
COc1ccc(C=NNc2nc(=O)[nH]nc2C)cc1[N+](=O)[O-],nt,nt,nt,5,6,1.6,11
COc1c2c(nc3ccccc13)OC(C(C)(O)COC(C)=O)C2 (stereo unspecified),-21,6157,-13,1,10,11,1
COc1ccc(NC(=O)c2cccc(S(=O)(=O)N3CCN(C)CC3)c2)c(OC)c1,-12,2542,-1,13,11,-1.0,8
CCC1Sc2ccc(S(=O)(=O)CCC(=O)NCc3ccco3)cc2NC1=O (stereo unspecified),-3,5464,6,-5,-6,1.5,-6
CCN1CCCC1Cn1cnc2c([nH]c3cccc(Cl)c32)c1=O (stereo unspecified),-14,4597,1,nt,nt,-1.3,4
CN(C)C(=O)N1CCC(C(=O)NCc2ccc3c(c2)OCO3)CC1,-20,10856,-1,6,1,1.2,6
C=CCn1c(NCCO)nc2c1c(=O)n(C)c(=O)n2C,-24,12198,-3,9,0,3.7,-2
CC(CN1CCN(Cc2ccccc2)CC1)c1ccccc1 (stereo unspecified),4,3138,4,-13,-8,4.0,3
CCCCn1c(N)c(N(CC(C)C)C(=O)C2CCN(S(=O)(=O)c3ccc(OCC)cc3)CC2)c(=O)[nH]c1=O,-20,4094,-9,6,-1,3.4,7
COC(=O)COc1ccccc1C(N)=O,-12,10374,-4,5,11,1.1,-1
Cc1[nH]ccc(=O)c1OCc1c(F)cccc1Cl,2,2403,-2,9,-1,4.8,-3
COc1ccc(C2/C(=C(\O)c3ccc4c(c3)CC(C)O4)C(=O)C(=O)N2Cc2cccnc2)c(OC)c1 (stereo unspecified),-22,6433,3,-3,8,9.9,7
O=C(Nc1ccc(Cl)cc1Cl)c1cccc(N2C(=O)C=CC2=O)c1,-2,5068,11,5,7,2.3,1
CN(C)C(=O)CSc1nnc(Cc2ccccc2)n1CC1CCCO1 (stereo unspecified),-29,4000,7,13,-1,5.7,6
Cc1ccc(OCc2nc3c4c(ncn3n2)-c2ccccc2CC42CCCC2)cc1,-14,2105,4,0,-9,-4.1,80
Cc1c(Cl)cccc1NC(=O)CSc1nccn1C,-10,4815,3,5,3,4.6,8
O=C(COC(=O)c1ccc(CNS(=O)(=O)c2ccc(F)c(Cl)c2)cc1)NCC1CCCCC1,-27,2113,5,5,0,5.7,0
O=C(Nc1ccc(OC(=O)c2ccco2)cc1)c1ccco1,-11,4386,6,7,8,7.2,10
O=C1C(Cc2ccccc2)Nc2ncnc(N3CCOCC3)c2N1Cc1ccccc1 (stereo unspecified),-11,3702&6035,nt,-3,1,4.0,1
CCc1nnc(NC(=O)CSc2nnc3c(n2)[nH]c2ccccc23)s1,7,2268,3,3,-1,3.2,-1
COc1ccc(NC(=S)N2CCC(C(O)(c3ccccc3)c3ccccc3)CC2)cc1,-7,3035,1,12,3,4.4,5
